Screening data: PubChem BioAssay, National Center for Advancing Translational Sciences (NCATS)
Marburg entry inh: qHTS for inhibitors of binding or entry into cells for Marburg Virus | Marburg virus pseudotyped entry inhibition, cell reporter; control for the full effect not named in the record; about a third of the inactives were read at about 46 µM | Potency, µM (top dose mostly 37.8 µM), without a hit: at the highest dose activity change, negative = inhibition, usual class: inhibitors | hit rate 1.8% among 300,000 | AID 540276, 2011; active = well fitted inhibition curve with a large enough effect; inconclusive = small, poorly fitted or top-dose-only effect, or effect the other way; inactive = flat fitted curve, though single readings scatter; tested in HEK293 cells; about a fifth of its hits are not listed in these tables; further: on the % scale 0 is the no-effect control and ±100 the full control effect; luciferase read-out
SARS PLP yeast: qHTS of Yeast-based Assay for SARS-CoV PLP; S. cerevisiae expressing SARS-CoV PLpro, growth rescue; control for the full effect not named in the record; Potency, µM (top dose mostly 32.9 µM), for the others: at the top dose activity, positive = growth rescue; hit rate 0.19% among 330,000; active means well fitted rising curve with a large enough effect; inconclusive means small, poorly fitted or top-dose-only effect; inactive means no such curve, though single readings can be large or run the other way; further: 0% is about no effect; nearly all actives have a fitted effect of over 55% in size; growth read by luminescence after 48 h
Cruzain noTriton: qHTS Assay for Promiscuous and Specific Inhibitors of Cruzain (without detergent). purified cruzain, Z-FR-AMC fluorescence, no detergent. Potency, µM, without a hit: max response, negative = inhibition, hits mostly inhibitors. Cruzipain (Trypanosoma cruzi), P25779. hit rate 2.3% among 200,000. AID 1476, 2009;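 further: plate controls were enzyme without inhibitor for no effect and buffer without enzyme for full effect; nearly all actives have a fitted effect of over 40% in size; top concentration of the series not given in the record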
Target sequence (P25779 123-467 limits assumed): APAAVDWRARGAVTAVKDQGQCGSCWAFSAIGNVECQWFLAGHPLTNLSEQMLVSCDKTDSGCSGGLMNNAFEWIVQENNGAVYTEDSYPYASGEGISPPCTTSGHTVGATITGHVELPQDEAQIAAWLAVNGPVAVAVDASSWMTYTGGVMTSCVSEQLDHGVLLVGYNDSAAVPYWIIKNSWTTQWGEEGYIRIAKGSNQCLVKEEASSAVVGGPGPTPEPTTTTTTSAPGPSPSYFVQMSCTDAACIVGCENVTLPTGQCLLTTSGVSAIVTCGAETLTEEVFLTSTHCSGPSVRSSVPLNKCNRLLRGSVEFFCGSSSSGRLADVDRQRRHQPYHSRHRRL
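Detergent-free condition (0.00005% Triton X-100) in acetate buffer pH 5.5 with DTT. 1.5 nM enzyme and compound were pre-mixed 15 min, then 2 uM Z-FR-AMC substrate added; reaction progress from fluorescence change between first and third reads (60 s).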
RE007 growth inh: qHTS Assay for Inhibitors of the HIV-1 protein Vpr; S. pombe RE007 Vpr strain, BacTiter-Glo ATP luminescence, 24 h; control for the full effect not named in the record; Potency, µM (top dose mostly 92.2 µM), for the others: at the highest dose activity change, negative = less growth; hit rate 0.21% among 360,000; active = well fitted falling curve with a large enough effect; inconclusive = small, poorly fitted or top-dose-only effect; inactive = no such curve, though single readings can be large or run the other way;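 further: on the % scale 0 is the no-effect control and ±100 the full control effect; nearly all actives have a fitted effect of over 50% in size; the assay follows cell death caused by Vpr and the record does not say whether a fall means rescue or toxicity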
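Fission yeast RE007 carrying one integrated HIV-1 vpr copy, seeded at OD 0.01 in PMG+AL medium with 23 nL pinned compound. Grown 24 h at 30 degrees; viability read by BacTiter-Glo luminescence after 5 min.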
StopGo reporter: High Throughput Screening for Foot and Mouth Disease Virus Antivirals. human cells with a luciferase reporter of 2A StopGo recoding; control for the full effect not named in the record. Potency, µM (doses to about 57.9 µM), inactives show at the highest dose signal change, negative = less light. hit rate 1.2% among 410,000. AID 1159524, 2015; active = well fitted falling curve with a large enough effect; inconclusive = small, poorly fitted or top-dose-only effect; inactive = no such curve, though single readings can be large or run the other way; tested in HEK293T cells; further: on the % scale 0 is the no-effect control and ±100 the full control effect; nearly all actives have a fitted effect of over 45% in size; luciferase light after 4 h
LASV entry inh: qHTS for Inhibitors of binding or entry into cells for Lassa Virus. Lassa virus pseudotype entry inhibition, cell reporter; control for the full effect not named in the record. Potency, µM (top dose mostly 37.9 µM), for the others: at the top dose activity change, negative = inhibition, hits mostly inhibitors. hit rate 1.2% among 300,000; active means well fitted inhibition curve with a large enough effect; inconclusive means small, poorly fitted or top-dose-only effect, or effect the other way; inactive means flat fitted curve, though single readings scatter; tested in HEK293 cells; further: on the % scale 0 is the no-effect control and ±100 the full control effect; nearly all actives have a fitted effect of over 50% in size; luciferase read-out
NS1 inh: qHTS Assay for Inhibitors of Influenza NS1 Protein Function; S. cerevisiae slowed by influenza A NS1, growth recovery by OD600; Potency, µM (series often up to 46.1 µM), for the others: top-dose activity, positive = more growth; hit rate 0.4% among 270,000; active means well fitted rising curve with a large enough effect; inconclusive means small, poorly fitted or top-dose-only effect; inactive means no such curve, though single readings can be large or run the other way; further: nearly all actives have a fitted effect of over 50% in size
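Recovery from NS1-induced slow growth read by OD600 in budding yeast switched to galactose assay medium (pH 6.0, -URA) at 1:100 dilution. Compound 23 nl per well; the matching strain lacking NS1 serves as control.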
Cruzain inh Det: qHTS Assay for Promiscuous and Specific Inhibitors of Cruzain (with detergent) | Cruzipain (Trypanosoma cruzi), P25779 | purified cruzain, Z-FR-AMC fluorescence, 0.01% Triton | Potency, µM, inactives show max response, negative = inhibition, usual class: inhibitors | hit rate 0.43% among 200,000 | AID 1478, 2009;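 further: plate controls were neutral wells for no effect and buffer without enzyme for full effect; nearly all actives have a fitted effect of over 40% in size; top concentration of the series not given in the record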
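Z-FR-AMC hydrolysis (2 uM substrate) by cruzain (1.5 nM) monitored kinetically at ex 360/em 450 nm after 15 min room-temperature compound exposure; 0.01% Triton X-100, pH 5.5, 5 mM DTT.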
An asterisk follows results filed as active; ? = inconclusive; · = not tested or not shown; & = joins results of further samples; [ ] = remark or other dose. Unless noted, the call rests on the fitted dose curve; in most records, active means well fitted curve in the direction sought with a large enough effect; inconclusive means small, poorly fitted or top-dose-only effect, or another doubt; inactive means no such curve, though single readings can be large; an effect the other way counts as inactive or inconclusive. Potency means the concentration at half of the fitted maximal effect.

SMILES	Marburg entry inh	SARS PLP yeast	Cruzain noTriton	RE007 growth inh	StopGo reporter	LASV entry inh	NS1 inh	Cruzain inh Det
Cc1ccc(S(=O)(=O)NCCNC(=O)N2CCOCC2)cc1	-3%	-11%	0%	-4%[3.69 µM]	17%	-3%	-1%	0.8%
Fc1ccccc1NC(=S)Nc1ccc(Br)cc1	8%	-23%	-11%	-3%	22%	?	-17%	-5.6%
CCN(CCCNC(=O)c1[nH]c(C)c(C(C)=O)c1C)c1cccc(C)c1	-18%[46.1 µM]	-5%	-13%	1%	-22%	2%	-2%	10%
O=C(Nc1ccc(F)cc1)N1CCc2ccccc2C1	?	-3%	·	-8%	66%[activator]	1%	-4%	·
CSCC(=O)N1CCCC(CNC(=O)c2ccccc2Cl)C1 (stereo not given)	-2%[46.1 µM]	-1%	·	0%	-11%	3%[46.1 µM]	0%	·
CC(C)(C)OC(=O)NCCCC[C@H](NC(=O)c1[nH]cnc1C(=O)Nc1ccccc1)C(=O)OC(C)(C)C	·	2%	·	0%	?	·	3%	·
CC(=O)Nc1ccc(NC(=O)c2sc3nc4n(c(=O)c3c2C)CCCCC4)cc1	-20%	0%	·	-7%	-13%	?	·	·
Cc1ccc(C(=O)COc2ccc3c(C)cc(=O)oc3c2)cc1	-25%[46.1 µM]	1%	·	-8%	-7%	5%[46.1 µM]	0%	·
O=C(Nc1nc2ccsc2c(=O)s1)C1CCC1	-6%	-4%	·	-1%	88%[activator]	?	-1%	·
O=C(c1cccs1)N1C2CCC1CC(O)(c1cccnc1)C2 (stereo not given)	-3%	-4%	4%	3%	-6%	13%	-11%	1.9%
O=C(OCc1ccc(Br)cc1)c1cccc(-c2nnc(-c3ccccc3)o2)c1	?	-8%	-28%	-22%	-14%	30%	9%	-0.7%
CCN(CC)CCNCC(=O)Nc1ccc(Cl)cc1C(=O)c1ccccc1	-21%	10%	3%	-1%	-7%	2%	1%	0.9%
Cc1cc(C)nc(SCc2cn3c(C)cc(C)nc3n2)n1	-3%[46.1 µM]	3%	·	-21%	1%	-24%	-1%	·
COCc1nnc(NC(=O)c2cc(OC)c(OC)cc2[N+](=O)[O-])s1	-6%	6%	-17%	-2%	-24%	9%	-9%	-4.4%
CCCc1nnc(SCC(=O)O)n1CC	·	1%	·	-3%	1%	·	-68%	·
NC(=O)Nc1ccc(C(=O)OCC(=O)Nc2ccc([N+](=O)[O-])cc2C(F)(F)F)cc1	11%	14%	-14%	0%	0%	0%	30%	-3.8%
Cc1cccc(NC(=O)C(=O)NCC2CCCO2)c1 (stereo not given)	0%	0%	·	10%	50%[activator]	-17%	-4%	·
O=C(O)c1cccc(S(=O)(=O)N2CCOCC2)c1	4%	2%	-5%	-7%	0%	2%	6%	5.5%
O=C(CSc1ccc(Cl)cc1)Nc1cccc(NC(=O)c2ccco2)c1	12%	-12%	17%	7%	·	-24%	-14%	-5.7%
CCn1c(CNC(=O)c2ccc(F)cc2)cc2ccccc21	·	-4%	·	2%	24%	·	18%	·
c1cc(-n2nnc3cnccc32)ccn1	·	-2%	·	10%	-7%	·	-36%	·
COc1ccccc1OCCn1c(SCC(N)=O)nc2ccccc21	2%	9%	·	4%	-4%	4%	2%	·
Cc1ccc(C2(C)NC(=O)N(CC(=O)N3CCN(S(=O)(=O)c4cccc(F)c4)CC3)C2=O)cc1 (stereo not given)	-11%	4%	·	5%	?	8%	-4%	·
C=CCNCc1cccn1-c1sc2c(c1C#N)CCCC2	-28%	1%	-5%	-17%	?	-17%	4%	-3.5%
CCCNC(=O)NC(=O)CSc1nc2ccccc2c(=O)n1Cc1ccncc1	-6%	6%	·	11%	?	3%	-8%	·
New compounds follow:
SMILES	Marburg entry inh	SARS PLP yeast	Cruzain noTriton	RE007 growth inh	StopGo reporter	LASV entry inh	NS1 inh	Cruzain inh Det
Cc1ccc(C(=O)c2ccccc2C(=O)OCC(=O)NCCc2ccc(Cl)cc2Cl)cc1	?	-10%	3%	0%	?	-11%	14%	-8.2%
CCC(Oc1ccccc1)C(=O)Nc1nnc(S(=O)(=O)N(CC)CC)s1 (stereo not given)	·	·	4%	·	-9%	8%[46.1 µM]	·	-2.8%
CCCCN1C(=O)/C(=C/C=C2\SCCN2C)SC1=S	-20%[46.1 µM]	-12%	·	-5%	50%[activator]	1%	·	·
CCCN(CC(=O)Nc1ccccc1C)C(=O)Cc1c[nH]c2ccccc12	-5%	·	·	-1%	-10%	-15%	·	·
CN(Cc1ccccc1)c1c([N+](=O)[O-])c(=O)n(C)c2ccccc12	·	-1%	·	2%	-19%	·	-7%	·
CC(C)(C)c1csc(NC(=O)CS(=O)(=O)c2ccccc2)n1	3%[46.1 µM]	-1%	·	7%	40%[activator]	?	-9%	·
COCCCn1c(C)csc1=Nc1cccnc1	?	-26%	-6%	-4%	0%	13%	-14%	-3.6%
COC(=O)Cn1ncc(N(C)Cc2ccccc2)c(Cl)c1=O	?	0%	·	12%	20%	?	-1%	·
CCOC(=O)c1cnc2nc[nH]n2c1=O	17%	3%	10%	13%	-10%	21%	-1%	8.1%
Fc1ccccc1CSc1ncnc2c1ncn2C1CCCCO1 (stereo not given)	?	·	·	-7%	11%	?	·	·
COc1ccc(-c2nc(C)ncc2-c2ccccc2)c(O)c1	·	0%	·	-2%	?	·	-8%	·
CC(C)c1ccc(NC(=S)NCc2cccs2)cc1	9%	5%	-2%	3%	18%	?	-32%	-1.4%
CCN1CCN(CC(=O)Nc2cc(S(=O)(=O)N(CC)c3ccccc3)ccc2Cl)CC1	?	-3%	·	7%	-13%	?	·	·
Cc1ccc(C)c(OCCC(=O)NCCc2ccc(F)cc2)c1	-13%[46.1 µM]	-11%	·	0%	-10%	8%[46.1 µM]	-86%	·
O=C(Nn1cnnc1)c1ccc([N+](=O)[O-])cc1	5%	1%	·	1%	-1%	17%[46.1 µM]	5%	·
Nc1nc(Nc2ccccc2F)nc(N2CCOCC2)c1[N+](=O)[O-]	?	-1%	·	44%	-5%	26%	1%	·
CCOc1ccccc1NC(=S)NCCCn1ccnc1	·	-1%	·	-11%	-4%	·	-1%	·
O=C(NC1CCCC1)C(c1ccncc1)N(C(=O)c1csnn1)c1ccc(F)cc1 (stereo not given)	?	-2%	·	3%	-10%	8%	1%	·
Cc1cccc(OCCCN2CCOCC2)c1	-20%	9%	·	13%	18%	20%	-1%	·
Cc1cc(N2C(=O)C(=O)/C(=C(/O)c3ccccc3)C2c2cccs2)no1 (stereo not given)	21%	1%	-11%	-19%	-1%	16%	5%	-1.4%
Cc1ccc2c(c1)-c1c(cnn1CC(=O)N1CCCN(Cc3ccccc3F)C1)CO2	-16%	19%	?	18%	?	-29%	-41%	-3.6%
O=C(CN1CCN(C(c2ccccc2)c2ccccc2)CC1)NCc1ccccc1	-18%[46.1 µM]	0%	·	-2%	14%	-9%[46.1 µM]	-8%	·
CC(C)(C)c1ccc(OCC(=O)O/N=C(\N)c2ccncc2)cc1	-18%	·	·	2%	7%	-27%	·	·
Cn1c(N)c(C(=O)COC(=O)/C=C/c2ccc(Cl)cc2Cl)c(=O)n(C)c1=O	-5%	1%	·	-9%	40µM*	5%	·	·
O=C1CCCc2c1[nH]c1ccc(Cl)cc21	4%	-15%	-13%	-10%	1%	4%	-1%	-8.7%
New compounds follow
SMILES	Marburg entry inh	SARS PLP yeast	Cruzain noTriton	RE007 growth inh	StopGo reporter	LASV entry inh	NS1 inh	Cruzain inh Det
CN(C)Cc1c[nH]c2ccccc12	·	6%	4%&-17%	-9%	-13%&-11%	·	·	2.1%&-12%
O=C(CSc1nnc(-c2ccco2)o1)N1CCOCC1	12%	2%	-3%	16%	6%	?	-40%	1.9%
O=S(=O)(NCC1CCCN(Cc2ccccc2)C1)c1cccc2cccnc12 (stereo not given)	·	-11%	·	-14%	-4%	·	3%	·
CCOc1ccc(C(=S)NC2CCCCC2)cc1OC	5%	-5%	-3%	-17%	42%[activator]	-13%[14.3 µM]	0%	1.8%
COc1ccc(COC(=O)CN2C(=O)NC3(CC(C)CC(C)(C)C3)C2=O)cc1F (stereo not given)	?	-1%	·	7%	-23%	?	·	·
Cc1ccc2nc(N(Cc3cccnc3)C(=O)COc3ccccc3)sc2c1	·	·	15%	·	58%[activator]	15%[46.1 µM]	·	0.1%
O=C(NN1CCOCC1)c1cc(-c2cccc(Cl)c2)nc2ccccc12	-10%	-1%	?	-12%	-15%	7%	-10%	-1.6%
Clc1ccccc1CSc1nncn2c1cc1occc12	·	·	-9%	·	16%	-4%[46.1 µM]	·	-2.7%
COc1ccc(Br)cc1S(=O)(=O)NCCCN1CCOCC1	16%	1%	·	0%	25%	20%	1%	·
Cc1ccc(CN=c2c([N+](=O)[O-])nn(-c3ccc4c(c3)OCCO4)n2O)cc1	?	-89%	-8%	-3%	0%	?	-20%	-9.3%
CC1(C)CC(=O)N(CC(=O)NC2CCCC2)c2ccccc2S1(=O)=O	·	-8%	-3%	-17%	-5%	·	-3%	1.1%
C/C(=N\NC(=O)c1ccc(CSc2nncn2C)cc1)c1ccc(Cl)cc1	?	-2%	2%	-7%	-1%	?	13%	-2.5%
O=C(O)CCc1ccc(-c2ccc(Br)cc2)n1-c1ccccc1O	4%[46.1 µM]	·	17%	·	-16%	5%[46.1 µM]	·	-12%
C/C(=N/NC(=O)CN1CCN(Cc2ccccc2Cl)CC1)c1cccnc1	·	-1%	·	1%	-18%	·	4%	·
CSc1ccccc1C(=O)OCC(=O)N1CCCCCC1	?	-5%	·	11%	20%	-17%[46.1 µM]	·	·
CCCCC(=O)Nc1cc(-c2nc3ccccc3o2)ccc1OC	·	·	19%	·	13%	-7%[46.1 µM]	·	-2.6%
CC(C)c1ccc(S(=O)(=O)c2cc3cc(Br)ccc3oc2=O)cc1	11µM*	8%	-5%	33%	?	?	-5%	1.3%
COC(=O)c1cccc(NC(=O)NC23CC4CC(CC(C4)C2)C3)c1	?	0%	-4%	-2%	-4%	?	-59%	0.5%
CCCNC(=O)c1c(O)c2c([nH]c1=O)CCCC2	1%[46.1 µM]	-1%	·	-2%	19%	?	0%	·
C=CCN1C(=O)CN=C1Nc1ccc(OC)cc1OC	-1%[46.1 µM]	0%	0%	4%	14%	4%	-14%	6.5%
